# Screening data as filed in PubChem BioAssay.
# Anthrax LT inh = anthrax lethal toxin internalization inhibition. Cells, anthrax lethal toxin internalization, FRET ratio (460/530). Potency, µM (highest dose often 40 µM), without a hit: at the top dose activity change, negative = inhibition, hits mostly inhibitors. 0.67% of 70,000 active; active = well fitted falling ratio curve with the 530 nm signal flat; inconclusive = other ratio curves, or a change in one channel alone; inactive = flat curves in the ratio and both channels; the % refers to the ratio; further: on the % scale 0 is the no-effect control and ±100 the full control effect; nearly all actives have a fitted effect of over 50% in size; tested in ME-180 cells; beta-lactamase reporter
# Prx2 Sm inh = inhibitors of Schistosoma mansoni peroxiredoxin 2; Potency, µM; S. mansoni Prx2 activity coupled to TGR/GSH (TGR is thioredoxin glutathione reductase), NADPH fluorescence loss, qHTS; some inactives read as strong as hits; AID 448; 0.07% of 65,000 active; active means full or partial inhibition curve with a strong effect at the top dose; inconclusive means weaker partial or single-point curve; inactive means no accepted curve; further: series up to 57 µM; many of its hits are not listed in these tables
#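 qHTS, coupled TGR/Prx2 format; 15 min compound preincubation at RT; reaction started with H2O2 (2.5 mM aliquot); kinetic NADPH fluorescence decrease, ex 365/em 450 nm.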
# * hit, by the source's call; ? = inconclusive; . = no result given; & = joins results of further samples; [ ] = another dose, or the depositor's remark. Potency means the concentration at half of the fitted maximal effect. Only part of the results is shown. The share of hits here may be higher or lower than overall.
SMILES,Anthrax LT inh,Prx2 Sm inh
CC(C)C[C@H](NC(=O)Nc1cccc(C(F)(F)F)c1)C(=O)O,.,>57
CSc1ncc(Cl)c(C(=O)NCc2ccc3c(c2)OCO3)n1,-4%,>57
CCOC(=O)c1sc2ncnc(NCC(c3cccs3)N(C)C)c2c1C (stereo not given),2%,>57
O=c1cccc(-c2ccc(Br)cc2)o1,-21%,.
O=C(NCC1CCCO1)c1nc2c(nnn2Cc2ccc(F)cc2)c(=O)[nH]1 (stereo not given),-1%,>57
O=C(CSC1=NCCN1)NC12CC3CC(CC(C3)C1)C2,3%,>57
O=S1(=O)N=CN(Cc2cccc(F)c2)c2ccccc21,8%,>57
O=C(Cn1c(=O)sc2ccccc21)Nc1ccc(S(=O)(=O)N2CCCC2)cc1,-26%,>57
COc1ccc(OC)c(C(=O)CN2C(=O)NC(C)(c3ccccc3)C2=O)c1 (stereo not given),3%,>57
NCCCCCCNS(=O)(=O)c1cccc2ccccc12,?,>57
CCOC(=O)c1c(C)c(C(=O)Nc2ccc(N(C)C)cc2)c(C)n1CC,6%,>57
COC(=O)c1ccc(C=O)cc1,24%,.
COc1cc2ccccc2c2cc([N+](=O)[O-])oc12,-20%[8 µM],>57
FC(F)(F)c1ccccc1-c1nc(Nc2ccncc2)c2ccccc2n1,9%,>11
Cc1cccn2c(=O)c3cc(C(=O)N4CCN(C(=O)c5ccco5)CC4)n(C)c3nc12,?,>57
CCOC(=O)c1cnc(-n2nc(C)cc2C)nc1NCCc1ccccc1,.,>57
Cc1ccnc(NC(=O)CCC(=O)N(CC(=O)NC(C)(C)C)C2CCCC2)c1,21%,>57
CCOc1cccc(-c2nnc(SCC(=O)Nc3cc(OC)cc(OC)c3)n2N)c1,-4%,>57
CCN(CC)C(=O)c1ccc(N2C(=O)C3CC=C(Cl)CC3C2=O)cc1 (stereo not given),7%,.
CCN1C(=O)CSc2ccc(C(=O)OC)cc21,10%,>57
Cc1ccccc1-n1c(SC/C(O)=C(\C#N)c2nc3ccccc3[nH]2)nnc1-c1ccncc1,-4%,>57
CCn1c2ccccc2c2cc(Nc3cc(C)nc4ncnn34)ccc21,?,>57
OCC1OC(c2ccccc2)C=CC1Oc1ccc(C2CCCC2)cc1 (stereo not given),-7%[8 µM],.
COC(=O)c1cc2ccsc2n1CC(=O)Nc1cc(C)cc(C)c1,-16%,>57
Cc1ccc(NC(=O)c2cc(-c3ccco3)on2)cc1,-10%,>57
O=c1[nH]c(CN2CCN(c3ccccc3Cl)CC2)nc2ccsc12,-9%,>57
O=C(CCC1(C(=O)O)CCC(=O)NC1)NCc1ccccc1 (stereo not given),-2%,>57
COc1ccc(CCn2c(SCC(=O)Nc3cc(C)on3)nc3ccccc3c2=O)cc1OC,?,>57
CCCCC(=O)Nc1cc2nn(-c3ccc(OC)cc3)nc2cc1C,0%,>57
O=C1C(=O)N(Cc2ccco2)C(c2cccc(Cl)c2)/C1=C(\O)c1ccc2c(c1)OCCO2 (stereo not given),?,>57
COc1nc(-c2ccccc2)ccc1-c1noc(C)n1,0%,>57
O=S(=O)(c1ccc(NCCc2c[nH]c3ccccc23)nc1)N1CCOCC1,11%,>57
CSC1CCCCC1(O)CSc1nc2ccccc2o1 (stereo not given),-10%,>57
CC(C)C(=O)N1CCc2cc(-c3csc(N)n3)ccc21,-13%,>57
O=C(CSc1ccccc1)N1CCC2(CC1)OCCO2,10%,>57
Cc1noc(C)c1C(=O)Nc1ccc(Cl)cc1C(F)(F)F,-8%,>57
CCOC(=O)c1c(N)n(CCN2CCCCC2)c2nc3ccccc3nc12,4%,>57
COc1ccc2c(c1)c(C(=O)CN1CCN(C(=O)c3ccco3)CC1)c(C)n2C,?,>57
CCCC1=C(C(=O)OCC)C2(C(=O)Nc3ccc(C)cc32)C(C#N)=C(N)O1 (stereo not given),?,>57
CCOc1ccccc1OCCCCN1CCCC1,-13%,>57
O=c1c(-c2cccs2)nc2cnc(N3CCOCC3)nc2n1-c1ccccc1,?,>57
Cn1c(SCc2ccccc2F)nc2cccnc21,1%,>57
O=C1c2ccccc2C(=O)N1n1c(=O)[nH]c2ccccc2c1=O,-7%,>57
O=C(c1cccc(S(=O)(=O)N2CCCCC2)c1)N1CCCCC1,-9%,>57
CN1CCN(C(=O)c2ccc(-c3nn(C)c(=O)c4ccccc34)cc2)CC1,.,>57
O=C(c1ccco1)N1CCN(c2cc(=O)n(C3CCCCC3)c(=O)[nH]2)CC1,0%,>57
C=CCOc1cccc(C2C(C(=O)c3ccco3)=C(O)C(=O)N2CCN2CCOCC2)c1 (stereo not given),-5%,>57
Cc1onc(-c2ccccc2Cl)c1C(=O)NCCn1ccc2ccccc21,?,>57

# Entries of single compounds, looked up by structure. Order of values: Anthrax LT inh, Prx2 Sm inh
# Cn1c(SCc2ccccc2F)nc2cccnc21 is entered as 1%, >57
# Cc1onc(-c2ccccc2Cl)c1C(=O)NCCn1ccc2ccccc21 is entered as ?, >57
# O=C1c2ccccc2C(=O)N1n1c(=O)[nH]c2ccccc2c1=O is entered as -7%, >57
# COc1ccc2c(c1)c(C(=O)CN1CCN(C(=O)c3ccco3)CC1)c(C)n2C is entered as ?, >57

# Other records:
SMILES,Anthrax LT inh,Prx2 Sm inh
CCOC(=O)c1ccc(NCn2c(=O)oc3ccccc32)cc1,-9%,.
Cc1nc2cnc(N3CCNCC3)nc2n(CCc2ccccc2)c1=O,2%,>11
COc1cccc(NC(=O)C2CC(=O)N(C)C(=Nc3cccc(F)c3)S2)c1 (stereo not given),-12%,>57
COc1ccc(S(=O)(=O)NCC(c2cccnc2)N2CCN(c3ccccc3OC)CC2)cc1C (stereo not given),2%,>57
COc1cccc(C2CC(=O)NC3=C2C(=O)CCC3)c1 (stereo not given),1%,>57
CCS(=O)(=O)Nc1ccc(-c2nnc(SCC(=O)OC)o2)cc1,?,>57
Nc1cc(OC(=O)c2ccco2)nn1S(=O)(=O)c1ccc(F)cc1,-15%,>57
O=C1C2=C(SCCS2)C(=O)N1c1ccccc1,2%,.
CCC/C(O)=C1\C(=O)CC(C)(C)CC1=Nc1ccc(OC)cc1OC,-19%,>57
Cc1onc(-c2c(F)cccc2Cl)c1C(=O)NCc1ccccn1,-8%,>57
CCn1nc(C(=O)OCC(=O)N2c3ccccc3CC2C)c2ccccc2c1=O (stereo not given),5%,>57
Cc1cc(CN2C(=O)c3ccccc3C2=O)on1,-19%,>57

# A section taken from the entries so far:
SMILES,Anthrax LT inh,Prx2 Sm inh
CCOC(=O)c1ccc(NCn2c(=O)oc3ccccc32)cc1,-9%,.
Cc1nc2cnc(N3CCNCC3)nc2n(CCc2ccccc2)c1=O,2%,>11
COc1cccc(NC(=O)C2CC(=O)N(C)C(=Nc3cccc(F)c3)S2)c1 (stereo not given),-12%,>57
COc1ccc(S(=O)(=O)NCC(c2cccnc2)N2CCN(c3ccccc3OC)CC2)cc1C (stereo not given),2%,>57

# (list continues)
SMILES,Anthrax LT inh,Prx2 Sm inh
O=c1cc(NCCO)c2ccccc2o1,-3%,.
COC(=O)N1CCC2(CC1)CN(C(c1ccccc1)c1ccccc1)C2,?,>57
C=CCn1c(SCC(=O)NCc2ccccc2)nnc1-c1ccccc1O,-3%,.
O=C(CSCCSCC(=O)c1ccco1)c1ccco1,-11%,>57
Oc1ccccc1C(=S)N1CCCCC1,-13%,.
C=CCn1c(SCC(=O)NCC2CCCO2)nc2scc(-c3ccco3)c2c1=O (stereo not given),12%,>57
N[C@H](CCC(=O)N[C@H](CSN=O)C(=O)NCC(=O)O)C(=O)O,-6%&-7%,>57&>57
CN1c2ccccc2N(C)C1c1ccc2c(c1)OCO2,?,>57
Cn1c(=O)[nH]c2ncn(C)c2c1=O,-2%,>57
COC(=O)c1ccc(NC(=O)CS(=O)(=O)Cc2ccccc2)cc1,5%,>57
O=c1c2ccccc2nc(-c2ccccc2)n1CCCN1CCOCC1,?,>57
O=C(c1cnccn1)N1CCC2(CC1)CN(Cc1cc(C(F)(F)F)cc(C(F)(F)F)c1)C2,-12%,>57
COc1ccc(NC(=O)c2cccs2)cc1O,3%,>57
Oc1c(C(c2ccccn2)N2CCOCC2)ccc2cccnc12 (stereo not given),-20%,>57
C=CCN1CCN(C(c2ccc(OC)c(OC)c2)c2nnnn2C(C)(C)C)CC1 (stereo not given),-9%,>57
CCOC(=O)c1sc2nc(C)cc(C)c2c1NC(=O)c1ccco1,1%,>57
c1cc(-c2sc(-c3ccncc3)c(-c3ccncc3)c2-c2ccncc2)ccn1,?,>57
CC(C(N)=O)N1C(=O)C2C3C=CC(C3)C2C1=O (stereo not given),21%,>57
Cc1ccc(N2C(=O)CSC23C(=O)Nc2ccccc23)cc1 (stereo not given),-5%,>57
COc1cccc(-c2ccc3ncnc(N4CCNCC4)c3c2)c1,?,>57
COc1cccc(C2CC(C(F)(F)F)n3ncc(C(=O)NCc4ccco4)c3N2)c1 (stereo not given),-14%,>57
CCCc1nc2ccccc2c(=O)n1/N=C/c1ccccc1O,-8%,>57
C[C@@H]1C[C@H](OC(=O)[C@@H](O)c2ccccc2)CC(C)(C)N1C,-13%[3.58 µM],>57
C=CCSc1nnc(CSc2nc3sc4c(c3c(=O)[nH]2)CCCC4)n1-c1ccccc1,-20%,.

# Arranged by heavy-atom count (descending): 3 of the compounds above.
SMILES,Anthrax LT inh,Prx2 Sm inh
Cc1ccccc1-n1c(SC/C(O)=C(\C#N)c2nc3ccccc3[nH]2)nnc1-c1ccncc1,-4%,>57
CCn1c2ccccc2c2cc(Nc3cc(C)nc4ncnn34)ccc21,?,>57
Cc1ccc(NC(=O)c2cc(-c3ccco3)on2)cc1,-10%,>57

# Next part
SMILES,Anthrax LT inh,Prx2 Sm inh
Cn1c(N2CCCCC2)nc2c1c(=O)[nH]c(=O)n2C,-12%,>57
CCc1ccc(C(=O)CSc2n[nH]c(C)n2)cc1,-4%,.
CCOC(=O)c1c(NC(=O)CSc2nnc(-c3ccccc3C)n2C)sc(C(C)=O)c1C,?,>57
O=C(c1ccccc1)N(Cc1ccc2c(c1)OCO2)Cc1nc2ccccc2c(=O)[nH]1,-1%,>57
COc1ccccc1Oc1nc2c(c(=O)n(Cc3ccccc3F)c(=O)n2C)n1C,?,>57
Cc1cnc(CNc2ccnc(-c3cccc(NS(C)(=O)=O)c3)n2)cn1,-2%,>57
CCOc1ccc(C2N(c3ccc(F)cc3)C(=O)C3CCCN32)cc1OC (stereo not given),11%,>57
CCC(C)(C)n1nnnc1C(c1ccncc1)N1CCN(c2cccc(OC)c2)CC1 (stereo not given),-9%,>57
Oc1ccc2ccccc2c1C=NCc1c(O)ccc2ccccc12,?,>57
COc1ccccc1NC(=O)CN1CCCCC1,-9%,>57
Cc1cc(C2(c3cc(C)c(O)c(C(=O)O)c3)OS(=O)(=O)c3ccccc32)cc(C(=O)O)c1O,-8%[8 µM],>57
CCOC(=O)C1CCN(C(=O)CN(C)S(=O)(=O)c2cc(C)ccc2OC)CC1,-9%,>57
Cc1cc2c(cc(C(=O)N3CCC(C(=O)NC4CCCC4)CC3)n2Cc2c(F)cccc2Cl)o1,-13%,>57
COc1ccc(N2CSC3=C(C#N)C(c4cc(OC)c(OC)cc4OC)CC(=O)N3C2)c(OC)c1 (stereo not given),-13%,>57
COc1ccc(CCNC(=O)CCNS(=O)(=O)c2ccc3c(c2)CCN3C(C)=O)cc1OC,-7%,>57
O=C(c1ccco1)[C@@H]1[C@@H]2C(=O)N(c3ccc(F)cc3)C(=O)[C@@H]2C2c3ccccc3C=CN21 (stereo not given in full),?,>57
Nc1nc(-c2cccnc2)cc(-c2cc(-c3cccnc3)nc(N)n2)n1,-7%[8 µM],>57
CN(C)c1ncc2nc(-c3cccc(C#N)c3)c(=O)n(CCC#N)c2n1,?,>57
N=c1c2c(-c3ccccc3)c(-c3ccccc3)n(Cc3ccco3)c2ncn1CCN1CCOCC1,?,>57
CCn1c(COc2ccc(Cl)cc2)nnc1SCC(=O)Nc1ccc2c(c1)OCCO2,23%,>57
O=C(O)COc1ccc(-c2nnn(Cc3ccccc3F)n2)cc1,?,>57
O=C(CCc1ccccc1)Nc1nc2ccc(S(=O)(=O)N3CCOCC3)cc2s1,?,>57
O=C(O)/C(Cc1cn[nH]n1)=N\O,-3%[8 µM],>57
CCn1nnnc1SCC(=O)N1CCOCC1,0%,>57
O=C1NC(=S)S/C1=C1\Sc2ccccc2N1CCCS(=O)(=O)O,-4%,>57
O=C(Nc1ccccc1)NC1(C(=O)NCc2ccco2)CCCCC1,-2%,>57
CC1CCN(CCCNC(=O)c2n[nH]c(=O)c3ccccc23)CC1,2%,>57
O=C(Nc1cccc(C(=O)N2CCOCC2)c1)c1ncn[nH]1,?,>57
CC1(C(=O)NCc2cccnc2)CCC(=O)N1Cc1cccs1 (stereo not given),0%,>57
Cn1c2c(c3ccccc31)CCNCC2,?,.
Cc1[nH]c2ccc(Br)cc2c(=O)c1CN1CCOCC1,1%,>57
O=C(O)Cn1nnnc1-c1ccc(F)cc1,?,>57
N#Cc1ccc2ccn(CC(=O)N3CCCc4ccccc43)c2c1,.,>57
COCCn1c(-c2ccc(OC)cc2)cnc1SCC(=O)Nc1cc(C)on1,3%,>57
COC(=O)c1cc2oc(C)cc2n1CC(=O)N1CCCc2ccccc21,1%,>57
Cc1nc2nc(COc3ccccc3)nn2c(C)c1Cl,.,>57
Cc1ccc(-c2nn3c(C)nnc3s2)cc1NC(=O)c1ccc(Br)o1,?,>57
